NPYLR7 agonist = activates Aedes aegypti NPYLR7 receptor | AID 1259423 | hit rate 0.15% among 270,000 | activation, % at 10 µM | HEK293T NPYLR7/Galpha15, GCaMP6s calcium fluorescence; in the data active = activation above about 40%;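 note: 0% = vehicle and 100% = reference agonist at the receptor; some compounds past the cut are filed as inactive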
NPYLR7 agonist max-min = second read-out of NPYLR7 agonist, no call of its own (marks repeat the call); activation, %; measured here: Max-Min RFU normalised activation; some inactives read as strong as hits;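 span of the calcium signal over five minutes; 0% = vehicle and 100% = native peptide agonist; compound fluorescence can raise it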
* marks the source's active call; other numbers are inactive results; & = joins results of further samples. An excerpt (hit frequency here may not be typical).

SMILES	NPYLR7 agonist	NPYLR7 agonist max-min
Cc1nnc2ccc(NCC(CN(C)C)C(O)c3ccccc3)nn12 (stereo not drawn)	0	-1
Cc1cc(C)n(-c2cccc(NC(=O)c3cc4c(cc3O)OCO4)c2)n1	4	1
COc1ccc(C2=NN(C(=O)CN3CCN(C)CC3)C(c3ccccc3Cl)C2)cc1 (stereo not drawn)	2	-1
CN(C1CCOCC1)S(=O)(=O)NCC1CCC2(CC1)OCCO2	5	4
COc1ccc(OCc2ccc(-c3nc(C#N)c(NCc4ccco4)o3)o2)cc1	-2	8
CSc1ncccc1C(=O)N1C[C@H](Oc2ccccn2)[C@H]2C[C@@H]1CC[C@H]2O	-2	7
Cc1ccccc1N=c1oc2ccc(Br)cc2cc1-c1nc2ccccc2[nH]1	4	13
CC(=O)c1cc(C(=O)N(C)CCSc2ccc(C)cc2)[nH]n1	23	12
Cc1ncc2c(c1CNC(=O)Cc1ccsc1)CCN(C(=O)[C@@H]1C[C@@H]3C=C[C@H]1C3)C2	3	-1
CC(C)N1CCC(C)(C(=O)Nc2ccccc2Oc2ccccc2)C1 (stereo not drawn)	0	0
O=C1N=c2ccccc2=C1c1sc(=S)n(-c2ccc(C(=O)O)cc2)c1O	-2	-10
CCCCc1ccc(N2CC(C)Cn3c2nc2c3c(=O)n(CCOC)c(=O)n2C)cc1 (stereo not drawn)	5	2
COc1ccc(Cl)cc1C(=O)Nc1ccc(-c2nc3cc(Cl)ccc3o2)cc1	8	5
CCOC(=O)c1cnc(-c2ccc(OC)cc2)nc1N1CCCC1C (stereo not drawn)	-9	-13
CCOC(=O)c1ccc(OC2CC3CCC(C2)N3C(=O)c2ccc(CSc3nc4ccc(OC)cc4[nH]3)cc2)cc1 (stereo not drawn)	12	4
O=C(CSc1cn(CC(=O)N2CCCCCC2)c2ccccc12)Nc1cccc(F)c1	-2	-5
NC1CCN(c2ccccc2C(=O)NCc2ccc3c(c2)OCO3)CC1	-2	10
O=C(CN1CCc2sccc2C1c1ccccc1)N1CCN(C(=O)c2ccco2)CC1 (stereo not drawn)	9	3
COC(=O)c1c(C)[nH]c(C(=O)N2CCc3cc(OC)c(OC)cc3C2)c1C	6	4
O=C1C2C3C=C(Cl)C(c4ccccc43)C2C(=O)N1c1cccc(Br)c1 (stereo not drawn)	-6	-4
CN1CCCC(CN(C)C(=O)c2[nH]nc(N)c2-c2ccccc2)C1 (stereo not drawn)	-8	-11
CCCCN(C(=O)CC1CCCC1)c1c(N)n(CCC)c(=O)[nH]c1=O	-2	3
Cc1cc(C(F)(F)F)nc(CCNC(=O)C2CCC(=O)N(Cc3cccc(F)c3)C2)n1 (stereo not drawn)	3	-1
Cc1c(C(=O)NCCC#N)sc(=O)n1Cc1ccc(C(=O)N(C)C)cc1	8	6
Cc1noc(C)c1S(=O)(=O)NC(=O)C1(C)CCN1C(=O)c1ccc(C2CCCCC2)cc1 (stereo not drawn)	6	5
O=C1c2cccc3c(Nc4ccccc4)ccc(c23)C(=O)N1c1ccccc1	53*	42*
CC(C)(C)c1noc(CCC(=O)Nc2ccc(OC3CCCC3)cc2)n1	3	3
COCCN1CCCC[C@]2(C[C@H](CO)[C@H](c3ccco3)N2C(=O)c2ccc(C)cc2)C1=O	5	7
COc1ccc(C)cc1CN(C)c1ccc(S(C)(=O)=O)cc1S(C)(=O)=O	1	-1
CC(c1ccc2c(c1)OCCO2)N(C)Cc1nc(C(c2ccccc2)c2ccccc2)no1 (stereo not drawn)	17	4

Exported as comma-separated lines: entries from further up
Compound,NPYLR7 agonist,NPYLR7 agonist max-min
CCCCN(C(=O)CC1CCCC1)c1c(N)n(CCC)c(=O)[nH]c1=O,-2,3
Cc1noc(C)c1S(=O)(=O)NC(=O)C1(C)CCN1C(=O)c1ccc(C2CCCCC2)cc1 (stereo not drawn),6,5
COc1ccc(C)cc1CN(C)c1ccc(S(C)(=O)=O)cc1S(C)(=O)=O,1,-1

As entered above.
NPYLR7 agonist with NC1CCN(c2ccccc2C(=O)NCc2ccc3c(c2)OCO3)CC1 = -2
NPYLR7 agonist with O=C(CSc1cn(CC(=O)N2CCCCCC2)c2ccccc12)Nc1cccc(F)c1 = -2

The list continues:
SMILES	NPYLR7 agonist	NPYLR7 agonist max-min
COc1cccc(Nc2nc(C)cc(C)c2C#N)c1	-3	-5
Nc1ccc(Cl)c(S(=O)(=O)Nc2ccc(Br)cc2)c1	2	1
O=C(Nc1cccc(F)c1)c1cc2ccccc2oc1=O	-7	-13
CCOC(=O)CN1CCN(c2ccc(F)c(Cl)c2)C(=O)C1C (stereo not drawn)	1	2
COc1ccccc1-c1cccc(-c2cccc(NC(=O)C=C(C)C)c2)n1	-2	4
COCCN=c1scc(-c2ccc(Br)cc2)n1N=Cc1ccc(OC)c(O)c1	3	-8
CCN1CCN(C2=C(c3c(-c4ccccc4)[nH]n(C(C)(C)C)c3=O)C(=O)N(C(C)C)C2=O)CC1	-4	-8
c1ccc2c(c1)N1CCCN2c2nnc(N3CCCC3)cc21	7	4
Cc1ccccc1OCC(=O)Nc1ccc2c(c1)CCC(=O)N2CCC(C)C	3	-1
COC(=O)[C@@H]1C[C@H](NS(=O)(=O)N2CCOCC2)CN1C	2	1

Compound profiles, from the list above. Order of values: NPYLR7 agonist | NPYLR7 agonist max-min
`CC(c1ccc2c(c1)OCCO2)N(C)Cc1nc(C(c2ccccc2)c2ccccc2)no1` (stereo not drawn) is entered as 17 | 4
`Nc1ccc(Cl)c(S(=O)(=O)Nc2ccc(Br)cc2)c1` is entered as 2 | 1
`CCOC(=O)c1cnc(-c2ccc(OC)cc2)nc1N1CCCC1C` (stereo not drawn) is entered as -9 | -13
`COC(=O)[C@@H]1C[C@H](NS(=O)(=O)N2CCOCC2)CN1C` is entered as 2 | 1

(listing goes on)
SMILES	NPYLR7 agonist	NPYLR7 agonist max-min
Cc1cccc(N(C)Cc2nnc3n(C)c(=O)c4sccc4n23)c1C	-8	-9
CC1NC(=S)N(Cc2ccccc2)C1=O (stereo not drawn)	3	-1
Nc1nnc(-c2cc3cc(Br)ccc3oc2=O)s1	-3	-9
C=CCn1c(C)cn2c3c(=O)[nH]c(=O)n(C)c3nc12	5	2
CSCC(CCO)Nc1ccnc2cc(F)ccc12 (stereo not drawn)	12	11
COCCN1C(=O)CC(CC(=O)N2CCN(c3nc(C)cnc3C)CC2)(c2ccccc2F)C1=O (stereo not drawn)	3	7
CCN(C)c1cc(N2CCOC(c3ccc(F)cc3)C2)ncn1 (stereo not drawn)	2	-6
COc1ccc(-c2nnc(SCC(=O)NCC3CCCO3)n2-c2ccccc2C)cc1 (stereo not drawn)	4	4
Cc1cc(C)c(C#N)c(Nc2ccccc2C)n1	-3	-5
CC1CCCCN1C(=O)c1ccc(NC(=O)c2ccsc2)cc1Cl (stereo not drawn)	0	-2
Cc1ccc(C(=O)Nc2ccc(N3CCc4ccccc4C3)c(C(=O)NC3CC3)c2)cc1[N+](=O)[O-]	14	15
C=CCCC(O)CN(Cc1ccc(OC)c(OC)c1)Cc1ccco1 (stereo not drawn)	16	25
CSc1ccc(CN2CCC(CCC(=O)NCc3ccc(F)cc3)CC2)cc1	18	5
NC1CCN(c2nc(-c3ccccc3)nc3c2CCNC3)C1 (stereo not drawn)	0	0
Cc1ccc(-n2c(CCC(=O)NCc3ccc(C)o3)cc3c2-c2ccccc2OC3)c(F)c1	2	-1
O=C(NC1CCC(n2cnnc2)CC1)c1cn2ccsc2n1 (stereo not drawn)	-3	6
CC(O)CC(C)(C)CNC(=O)Nc1cc(CC(C)(C)C)nn1C (stereo not drawn)	-2	44
NC1CCN(c2ccccc2C(=O)NCCN2CCCCC2)CC1	-2	8
O=C(C(c1ccccc1)c1ccccc1)N1CCN(c2ncnc3c2nnn3-c2ccccc2)CC1	-4	-13
Cc1cc(OCc2nnc(/C=C/c3ccccc3)o2)ccc1Br	2	8
COc1ccc(CC(=O)NCC2CCCN(Cc3cn(C)c4ccccc34)C2)cc1 (stereo not drawn)	-8	-12
NC(=O)Cc1ccccc1NC(=O)N1CCc2c(F)ccc(F)c2C1	-2	-2
C#CCO/N=C1\CCCc2nonc21	3	2
Cn1nnnc1SCc1nc2ccccc2o1	2	9
CC(C)(C)c1cc2nc(-c3ccccc3Cl)cc(C(=O)NCc3cccnc3)n2n1	-10	0
O=C1OC(c2ccc(Br)cc2)=N/C1=C\C(Cl)=C\c1ccccc1	-2	-6
COCc1cc(N2CCOCC2)nc(SCc2ccc(C(=O)NCc3ccccn3)cc2)n1	5	14
COc1ccc(-c2nn3c(-n4[nH]c(C)cc4=O)cc(C)nc3c2C)cc1OC	4	11
COc1ccc(-n2c(-c3ccccc3)cc(C(=O)N3CCN(C(=O)CCc4ccccc4)CC3)c2C)cc1OC	-7	-10
Cc1cccnc1CNC(=O)CCc1ccccc1	1	0
CC1=C(C(=O)OC2CCCCCC2)C(c2cccc3ccccc23)NC(=O)N1 (stereo not drawn)	-4	-7
O=c1cc(CN2C[C@@H]3C4CCC(CC4)[C@@H]3C2)[nH]c(=O)[nH]1	-2	0
CN1C[C@H](NC(=O)c2ccccc2N2CCS(=O)(=O)CC2)C[C@H]1CO	0	-2
O=C1COCc2cc(-c3cnc4ccccc4c3)ccc2N1CC1CC1	5	3
CN(Cc1cccc(Cl)c1Cl)Cn1nnc2ccccc2c1=O	-2	-3
Clc1ccc(C2(c3nnc(SCc4ccccn4)o3)CCC2)cc1	-14	-19
COc1cc(COC2CN(C3CCCC3)CC(=O)N(C(C)C)C2)cc(OC)c1 (stereo not drawn)	9	-6
Cc1ccc(C)c(S(=O)(=O)NN=Cc2ccc3c(c2)OCO3)c1	1	-5
COCC1(C(=O)N(Cc2nccn2C)C2CC2)CCC1	5	3
O=C(Cc1ccc(Cl)cc1)NNC(=O)c1ccc(=O)n(Cc2ccc(Cl)cc2)c1	-12	-17
CC(C)Cc1cc(CNC2CCCCCC2)no1	-1	-4
Cc1ccsc1CN(CCc1c[nH]c2ccccc12)Cc1nc(C(=O)O)co1	9	10
CCC1(C)CC(CC#N)(c2ccc(OC)cc2)CCO1 (stereo not drawn)	1	0
CN1CCN(S(=O)(=O)c2ccc(=S)[nH]c2)CC1	17	10
CCn1c(=S)[nH]c2sc3c(c2c1=O)CCCC3	1	1
CC1(C)[C@]2(C(=O)NCc3cc(-c4ccco4)on3)CC[C@@]1(C)OC2=O	3	-3
COc1ccc(OC)c(C2CCCN2C(=O)C2CCN(S(=O)(=O)c3ccc(Cl)cc3)CC2)c1 (stereo not drawn)	4	3
Cc1nn2cc(Cn3ccnc3-c3nc[nH]c3C)nc2s1	6	2
Cc1cccc2nc(CSc3nnnn3C3CC3)cc(=O)n12	3	2
OCC1(Cc2ccccc2C(F)(F)F)CCN(c2ccc(Cl)cn2)CC1	15	-2
The listing continues:
SMILES	NPYLR7 agonist	NPYLR7 agonist max-min
CCCC1COCCN1Cc1ccc(C(=O)Nc2c(C)cnn2C)cc1 (stereo not drawn)	6	4
CC#CC(=O)N1CC(=O)N(C2CCCCC2)CC(OCc2ccccc2)C1 (stereo not drawn)	5	-5
CN(C)CCN(C(=O)c1ccc(Br)cc1)c1nc2c(F)cc(F)cc2s1	-7	-10
COc1ccc(S(=O)(=O)N2CCC(CCc3ccccc3)CC2)cc1OC	2&5	5&3
CN(C)CC1(O)CCN(C(=O)CCc2ccc3c(c2)OCO3)C1 (stereo not drawn)	13	10
O=C(CCc1ccccc1Cl)N1CCCC(N2CCN(c3ccccc3F)CC2)C1 (stereo not drawn)	-1	-6
O=C(Nc1cccc(F)c1)N(Cc1cccc(OS(=O)(=O)c2cccc(C(F)(F)F)c2)c1)Cc1ccco1	-8	-8
CC(OCC(F)(F)F)C(=O)Nc1cnn(C)c1 (stereo not drawn)	2	-2
COC(=O)[C@@H]1C[C@@H](NC(=O)c2cccc3cnccc23)CN1C	-5	-5
N#Cc1c(Cl)nsc1N1CCC(C(=O)NCCc2ccccc2F)CC1	4	2
Cc1oc(-c2ccc(Cl)cc2)nc1CN1CCCCC1c1ccccn1 (stereo not drawn)	-7	-12
Cn1cc(C(=O)N2CCN(C(=O)CCCc3ccccc3)CC2)c2nn(-c3ccccc3)c(=O)c-2c1	0	-2
CCOc1ccc(N2C(=O)N(c3ccccc3C)C3CS(=O)(=O)CC32)cc1 (stereo not drawn)	-5	-7
CCOC(=O)c1ccc(NC(=O)N(CCCN2CCOCC2)CC(=O)N(Cc2ccc3c(c2)OCO3)Cc2ccco2)cc1	0	11
NS(=O)(=O)c1ccc(NS(=O)(=O)c2ccc(Cl)cc2)cc1	-3	-3
Cn1cc(NC(=O)c2ccc(COc3ccc(Br)cc3)o2)ccc1=O	-1	-4
O=C(O)[C@H]1C[C@@H](O)CCN1C(=O)CCN1CCCCO1	7	5
CC(C)(NCCCNS(C)(=O)=O)c1cccc(C(F)(F)F)c1	2	0
O=C(NC1CCCN(c2nc3ccccc3s2)C1)c1ccccc1N1CCOCC1 (stereo not drawn)	16	5

Random excerpt: six records from the list, in no set order.
SMILES	NPYLR7 agonist	NPYLR7 agonist max-min
Cn1cc(C(=O)N2CCN(C(=O)CCCc3ccccc3)CC2)c2nn(-c3ccccc3)c(=O)c-2c1	0	-2
O=C(NC1CCCN(c2nc3ccccc3s2)C1)c1ccccc1N1CCOCC1 (stereo not drawn)	16	5
CCOC(=O)c1ccc(NC(=O)N(CCCN2CCOCC2)CC(=O)N(Cc2ccc3c(c2)OCO3)Cc2ccco2)cc1	0	11
CCOc1ccc(N2C(=O)N(c3ccccc3C)C3CS(=O)(=O)CC32)cc1 (stereo not drawn)	-5	-7
O=C(O)[C@H]1C[C@@H](O)CCN1C(=O)CCN1CCCCO1	7	5
NS(=O)(=O)c1ccc(NS(=O)(=O)c2ccc(Cl)cc2)cc1	-3	-3

Source: PubChem
